High-throughput results: PubChem BioAssay, Broad Institute
Vaccinia inh: Vaccinia orthopox stage-specific inhibition. AID 1053133. activity change (mCherry), % (no concentration beside the values). Vaccinia-infected cells, mCherry/Venus stage reporter fluorescence; hits give low values; some inactives read as strong as hits. 89,000 tested, 0.01% active;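 active means mCherry past -33% and 40 or more points under the early reporter, replicates agreeing; inconclusive means past -33% without that gap or agreement; tested in A549 cells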;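 further: scaled between vehicle wells and reference inhibitor wells; 23 nL library stock went into each well; one replicate is shown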
Vaccinia inh Venus: second read-out of Vaccinia inh, no call of its own (marks repeat the call); activity change (Venus), %; measured here: Venus reporter, other viral stage;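 negative = less Venus signal; first of two replicates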
* hit, by the source's call; ? = inconclusive; . = no result given. A portion of the library; count on the stated rates, not on these rows.

no.	Molecule	Vaccinia inh	Vaccinia inh Venus
1	O=C(C[C@H]1CC[C@H](NC(=O)c2ccncc2)[C@H](CO)O1)Nc1ccccc1	3	3
2	C[C@H]1CN([C@@H](C)CO)C(=O)c2cccc(NC(=O)c3ccncc3)c2O[C@H]1CN(C)C(=O)Nc1ccccc1	0	4
3	CCS(=O)(=O)Nc1ccc2c(c1)C(=O)N(C)C[C@H](OC)[C@H](C)CN(C(=O)C1CC1)[C@@H](C)CO2	4	10
4	COc1cccc(CN2CCCCN3[C@H](CO)[C@@H](c4ccc(C#Cc5cccnc5)cc4)[C@@H]3C2)c1	-31	-26
5	O=C(C[C@@H]1C=C[C@H](NC(=O)Cc2cccnc2)[C@@H](CO)O1)Nc1ccccc1	3	8
6	C[C@H](CO)N1C[C@H](C)[C@@H](CN(C)S(=O)(=O)c2ccccc2)Oc2ccc(NC(=O)C3CC3)cc2C1=O	25	10
7	C[C@H](CO)N1C[C@H](C)[C@H](CN(C)C(=O)Nc2ccc(C(F)(F)F)cc2)Oc2ccc(NC(=O)Nc3ccc4c(c3)OCO4)cc2CC1=O	-15	3
8	C[C@@H]1CN([C@H](C)CO)C(=O)c2cccc(NC(=O)Nc3ccccc3)c2O[C@H]1CN(C)S(=O)(=O)c1ccc(F)cc1	6	9
9	CO[C@@H](CN(C)Cc1cc(F)ccc1F)[C@@H](C)CN([C@H](C)CO)S(=O)(=O)c1ccc(Cl)cc1	-20	-12
10	C[C@H]1CN([C@@H](C)CO)C(=O)c2cc(C#CC3CCCC3)cnc2O[C@@H]1CN(C)Cc1ccncc1	-2	-12

The final four records of the part before come first, to join the parts:
no.	Molecule	Vaccinia inh	Vaccinia inh Venus
7	C[C@H](CO)N1C[C@H](C)[C@H](CN(C)C(=O)Nc2ccc(C(F)(F)F)cc2)Oc2ccc(NC(=O)Nc3ccc4c(c3)OCO4)cc2CC1=O	-15	3
8	C[C@@H]1CN([C@H](C)CO)C(=O)c2cccc(NC(=O)Nc3ccccc3)c2O[C@H]1CN(C)S(=O)(=O)c1ccc(F)cc1	6	9
9	CO[C@@H](CN(C)Cc1cc(F)ccc1F)[C@@H](C)CN([C@H](C)CO)S(=O)(=O)c1ccc(Cl)cc1	-20	-12
10	C[C@H]1CN([C@@H](C)CO)C(=O)c2cc(C#CC3CCCC3)cnc2O[C@@H]1CN(C)Cc1ccncc1	-2	-12
11	COCC(=O)N1[C@@H](CO)[C@@H]2c3ccccc3NC[C@@H]21	9	8
12	C[C@H](CO)N1C[C@H](C)[C@H](CN(C)Cc2cccc(C(F)(F)F)c2)Oc2ncc(C#Cc3ccc(F)cc3)cc2C1=O	-32	-23
13	O=C(N[C@H]1CC[C@@H](CCNS(=O)(=O)c2cccc(Cl)c2)O[C@@H]1CO)c1ccc(F)cc1	-1	-5
14	CCCNC(=O)N(C)C[C@H]1Oc2cc(C#C[C@@H](C)O)ccc2S(=O)(=O)N([C@H](C)CO)C[C@H]1C	19	3
15	CC(C)NC(=O)N(C)C[C@H]1OCCCC[C@H](C)Oc2ccc(NS(=O)(=O)c3cccs3)cc2C(=O)N([C@H](C)CO)C[C@@H]1C	10	15
16	CC(C)NC(=O)N(C)C[C@@H]1Oc2cc(C#Cc3ccc(F)cc3)ccc2S(=O)(=O)N([C@H](C)CO)C[C@@H]1C	-21	-13
17	COc1ccc(-c2ccc([C@H]3[C@H](CO)N4C(=O)CN(Cc5ccc(C)cc5)C[C@@H]34)cc2)cc1	-15	-15
18	CCC(=O)NC[C@@H]1[C@@H](c2ccccc2)[C@@H](CO)N1C(=O)C1CCC1	17	24
19	CCCNC(=O)C[C@H]1CC[C@H]2[C@@H](COc3ccc(NC(=O)c4ccno4)cc3C(=O)N2C)O1	12	9
20	C[C@@H]1CN([C@H](C)CO)C(=O)c2cccc(NC(=O)Nc3ccc(F)cc3)c2O[C@@H]1CN(C)Cc1ccncc1	0	3
21	C[C@@H]1CN([C@H](C)CO)C(=O)c2cc(NC(=O)Nc3ccc(C(F)(F)F)cc3)ccc2O[C@H]1CN(C)C(=O)Nc1ccc(C(F)(F)F)cc1	-9	5
22	O=C(C[C@@H]1CC[C@H](NC(=O)NC2CCCC2)[C@H](CO)O1)NCc1ccc(F)cc1	-5	0
23	CNC[C@@H]1Oc2ccc(NC(=O)NC3CCCCC3)cc2C(=O)N([C@@H](C)CO)C[C@@H]1C	6	3
24	COC(=O)[C@@H]1[C@@H](CO)[C@@H]2Cn3c(ccc(-c4ccccc4F)c3=O)[C@@H]2N1Cc1cccnc1	-1	8
25	COCC(=O)N1[C@H](CO)[C@H](c2ccc(C#Cc3ccccc3F)cc2)[C@@H]1C#N	-5	-9
26	Cc1ccc(S(=O)(=O)Nc2cccc3c2O[C@@H](CN(C)Cc2ccc(C(F)(F)F)cc2)[C@H](C)CN([C@@H](C)CO)C3=O)cc1	-9	-11
27	C[C@@H]1CCCCO[C@H](CN(C)CC2CC2)[C@H](C)CN([C@H](C)CO)C(=O)c2cc(NC(=O)c3ccncc3)ccc2O1	-10	-6
28	O=C(C[C@H]1CC[C@@H](NC(=O)c2ccccc2)[C@@H](CO)O1)NCCc1ccncc1	16	15
29	COCC(=O)N(C)C[C@H]1Oc2ncc(-c3ccc(C)cc3)cc2C(=O)N([C@H](C)CO)C[C@H]1C	10	5
30	CCN1[C@@H]2c3ccc(-c4cccnc4)c(=O)n3C[C@@H]2[C@@H](CO)[C@@H]1C(=O)NCc1ccccc1	2	2

The list continues.
The line under a structure holds: Vaccinia inh	Vaccinia inh Venus
#31 C[C@@H]1CCCCO[C@H](CN(C)Cc2ccc(C(=O)O)cc2)[C@H](C)CN([C@H](C)CO)C(=O)c2cc(NC(=O)CCC(F)(F)F)ccc2O1
  13	10
#32 Cc1ccc(S(=O)(=O)N[C@@H]2C=C[C@@H](CC(=O)O)O[C@@H]2CO)cc1
  8	18
#33 CC(C)(O)C#Cc1ccc([C@H]2[C@H](CO)N3CCCCN(C(=O)c4cccc(F)c4)C[C@@H]23)cc1
  21	0
#34 O=C(c1ccc(F)cc1)N1CC(=O)N2[C@H](C1)[C@@H](c1ccc(C3=CCCC3)cc1)[C@@H]2CO
  24	16
#35 C[C@H]1CCCCO[C@H](CN(C)S(C)(=O)=O)[C@@H](C)CN([C@@H](C)CO)C(=O)c2cc(NC(=O)C3CCCCC3)ccc2O1
  -7	-2
#36 CC(C)NC(=O)Nc1ccc2c(c1)C(=O)N([C@@H](C)CO)C[C@@H](C)[C@H](CN(C)C(=O)Nc1ccc(C(F)(F)F)cc1)OCCCC[C@@H](C)O2
  -29	-30
#37 C[C@@H]1CCCCO[C@H](CN(C)CC2CCCCC2)[C@@H](C)CN([C@@H](C)CO)C(=O)c2cc(NS(=O)(=O)c3cccs3)ccc2O1
  ?	.
#38 C/C=C/c1ccc2c(c1)O[C@H](CN(C)C(=O)CN1CCOCC1)[C@@H](C)CN([C@@H](C)CO)S2(=O)=O
  38	17
#39 C[C@@H]1CCCCO[C@@H](CN(C)Cc2ccc(Cl)c(Cl)c2)[C@H](C)CN([C@H](C)CO)C(=O)c2cc(NS(=O)(=O)c3ccccc3)ccc2O1
  ?	.
#40 O=C(C1=C[C@H](c2coc3ccccc3c2=O)C[C@H](OCc2ccc(CO)cc2)O1)N1CCOCC1
  21	12

Taken from above.
For Vaccinia inh Venus, compound 36 is entered as -30
For Vaccinia inh, compound 34 is entered as 24

Grouped by structure, the entries above containing an aryl methoxy group (two)
The line under a structure holds: Vaccinia inh	Vaccinia inh Venus
#4 COc1cccc(CN2CCCCN3[C@H](CO)[C@@H](c4ccc(C#Cc5cccnc5)cc4)[C@@H]3C2)c1
  -31	-26
#17 COc1ccc(-c2ccc([C@H]3[C@H](CO)N4C(=O)CN(Cc5ccc(C)cc5)C[C@@H]34)cc2)cc1
  -15	-15

(next part)
The line under a structure holds: Vaccinia inh	Vaccinia inh Venus
#41 N#C[C@@H]1[C@H](c2ccc(-c3ccccc3F)cc2)[C@H](CO)N1C(=O)Cc1ccccc1
  -5	-4
#42 O=C1CNC[C@H]2[C@H](c3ccc(C#CC4CCCC4)cc3)[C@@H](CO)N12
  -4	2
#43 CN1C(=O)c2cc(NC(=O)c3cccc(C(F)(F)F)c3)ccc2OC[C@@H]2O[C@H](CC(=O)NCCN3CCCC3)CC[C@H]21
  6	-4
#44 C[C@@H]1CN([C@@H](C)CO)C(=O)c2cc(NC(=O)Cc3cn(C)c4ccccc34)ccc2O[C@@H]1CN(C)S(=O)(=O)c1ccc(Cl)cc1
  -19	-5
#45 CO[C@@H]1CN(C)C(=O)c2ccc(NC(=O)Cc3ccccc3)cc2OC[C@@H](C)N(C)C[C@H]1C
  -2	-3
#46 COc1ccc(S(=O)(=O)N(C)C[C@H]2Oc3ccc(NC(=O)C4CC4)cc3CC(=O)N([C@@H](C)CO)C[C@H]2C)cc1
  21	19
#47 CC(C)NC(=O)NCC[C@H]1CC[C@H](NC(=O)CCN2CCCCC2)[C@H](CO)O1
  10	7
#48 COc1ccc(NC(=O)Nc2ccc3c(c2)C(=O)N([C@@H](C)CO)C[C@@H](C)[C@@H](CN(C)S(C)(=O)=O)OCCCC[C@@H](C)O3)cc1
  16	6
#49 C[C@@H]1CN([C@@H](C)CO)C(=O)c2cc(NS(=O)(=O)c3ccc(Cl)cc3)ccc2O[C@@H]1CN(C)S(=O)(=O)c1cccs1
  -21	-12
#50 Cc1noc(C)c1NC(=O)N(C)C[C@@H]1OCc2ccccc2-c2c(n(C)c3ccccc23)C(=O)N([C@@H](C)CO)C[C@H]1C
  2	1
#51 O=C(C[C@@H]1CC[C@@H]2[C@H](COC[C@H](O)CN2Cc2ccc3c(c2)OCO3)O1)Nc1ccccc1
  -2	-2
#52 COCCNC(=O)C[C@H]1C[C@@H]2c3cc(NC(=O)C4CCOCC4)ccc3O[C@@H]2[C@H](CO)O1
  -4	-9
#53 O=C(C[C@@H]1C=C[C@H](NC(=O)Nc2ccc(C(F)(F)F)cc2)[C@H](CO)O1)NCc1cc(F)cc(F)c1
  ?	.
#54 CS(=O)(=O)N1CCCCN2[C@@H](CO)[C@@H](c3ccc(Br)cc3)[C@@H]2C1
  24	16
#55 Cc1noc(C)c1S(=O)(=O)Nc1ccc2c(c1)CC(=O)N([C@@H](C)CO)C[C@H](C)[C@@H](CN(C)S(=O)(=O)c1ccccc1)O2
  24	23
#56 O=C(NC[C@@H]1CC[C@@H]2[C@@H](CN2Cc2ccccc2F)O1)C1CC1
  9	7
#57 COc1ccc(NC(=O)N2C[C@H](O)COC[C@H]3O[C@H](CC(=O)NCc4ccccc4OC)CC[C@@H]32)cc1
  15	9
#58 C[C@H](CO)N1C[C@H](C)[C@@H](CN(C)C(=O)c2cccnc2)Oc2ncc(C3=CCCCC3)cc2C1=O
  10	7
#59 COc1ccccc1S(=O)(=O)N[C@@H]1CC[C@H](CC(=O)NCc2cc(F)cc(F)c2)O[C@H]1CO
  -16	-9
#60 C[C@@H]1CN([C@H](C)CO)C(=O)c2cc(NC(=O)C3CC3)ccc2O[C@H]1CN(C)S(=O)(=O)c1ccc(F)cc1
  15	6
#61 O=C(Nc1ccc2c(c1)[C@@H]1C[C@H](CC(=O)N3CCOCC3)O[C@@H](CO)[C@@H]1O2)NC1CCCCC1
  -8	-19
#62 CO[C@@H](CN(C)Cc1ccc2c(c1)OCO2)[C@H](C)CN(C(=O)Nc1ccc(F)cc1)[C@H](C)CO
  -5	7
#63 COc1ccc2c3c([nH]c2c1)[C@H](CO)N(Cc1cccc(F)c1)CC31CCN(C(C)=O)CC1
  0	2
#64 CO[C@H](CN(C)C(=O)c1ccccc1F)[C@@H](C)CN([C@@H](C)CO)S(=O)(=O)c1ccc(F)cc1
  11	11
#65 O=C(O)C[C@@H]1C=C[C@@H](NC(=O)c2ccncc2)[C@H](CO)O1
  5	7
#66 C/C=C/c1ccc2c(c1)O[C@H](CN(C)C(=O)c1cnccn1)[C@H](C)CN([C@H](C)CO)S2(=O)=O
  8	3
#67 C[C@H](CO)N1C[C@H](C)[C@@H](CN(C)Cc2ccccc2)Oc2cc(C#C[C@@H](C)O)ccc2S1(=O)=O
  -16	-12
#68 C[C@@H]1CCCCO[C@@H](CN(C)Cc2ccc(Cl)c(Cl)c2)[C@H](C)CN([C@H](C)CO)C(=O)c2cc(NC(=O)CCC(F)(F)F)ccc2O1
  ?	.
#69 COc1ccccc1S(=O)(=O)N[C@H]1C=C[C@@H](CC(=O)N2CCOCC2)O[C@H]1CO
  7	-1
#70 COc1ccc(CN(C)C[C@H]2Oc3ccc(NC(=O)Cc4ccccc4)cc3C(=O)N([C@@H](C)CO)C[C@@H]2C)cc1
  0	8
#71 C[C@H](CO)N1C[C@H](C)[C@H](CN(C)Cc2ccc(-c3ccccc3)cc2)Oc2c(NC(=O)c3ccncc3)cccc2C1=O
  -27	-13
#72 CCCNC(=O)C[C@H]1CC[C@@H]2[C@H](COC[C@@H](O)CN2C(=O)Nc2ccc3c(c2)OCO3)O1
  15	7
#73 COc1ccc(NC(=O)N(C)C[C@@H]2Oc3ccc(NC(=O)Nc4cccc5ccccc45)cc3C(=O)N([C@H](C)CO)C[C@H]2C)cc1
  3	6
#74 C[C@@H]1CN([C@@H](C)CO)C(=O)c2cccc(NS(C)(=O)=O)c2O[C@@H]1CN(C)S(=O)(=O)c1ccccc1
  10	-1
#75 C[C@H](CO)N1C[C@H](C)[C@H](CN(C)S(=O)(=O)c2cccs2)OCCCC[C@H](C)Oc2ccc(NS(=O)(=O)c3cn(C)cn3)cc2C1=O
  19	9
#76 CN(C)C(=O)C[C@@H]1CC[C@@H]2[C@H](COc3ccc(NC(=O)c4ccc(F)c(F)c4)cc3C(=O)N2C)O1
  2	7
#77 O=C(C[C@H]1CC[C@H]2[C@@H](COC[C@@H](O)CN2C(=O)Nc2ccc(Cl)c(Cl)c2)O1)NCc1ccc(Cl)cc1
  ?	.
#78 COc1ccc(NC(=O)Nc2ccc3c(c2)CC(=O)N([C@H](C)CO)C[C@@H](C)[C@@H](CN(C)C)O3)cc1
  -5	-8
#79 CNC[C@@H]1Oc2ccc(NC(=O)Nc3ccccc3)cc2CC(=O)N([C@@H](C)CO)C[C@@H]1C
  2	0
#80 C[C@@H]1CN([C@H](C)CO)C(=O)c2cc(N(C)C)ccc2O[C@@H](C)CCCCO[C@H]1CN(C)Cc1ccc(C(F)(F)F)cc1
  ?	.
